Compound activity deposited in PubChem by ICCB-Longwood Screening Facility, Harvard Medical School.
HCMV UL50-53 inh = inhibitors of HCMV UL50-UL53 nuclear egress complex interaction | HTRF UL50-UL53 interaction, normalized percent inhibition | inhibition, % (test concentration not listed) | 190,000 compounds, 0.15% hits | AID 1918969;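 active = both replicates at 50% or more, plus weaker picks with an unusually low signal ratio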;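 note: stock transfer was 100 nL into about 20 µL; 0% = negative control wells and 100% = wells with untagged competitor protein; inactives centre near -12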
Sa growth inh = inhibitors of Staphylococcus aureus growth at 42 °C | S. aureus RN4220 growth, OD600, 20 h; stronger effect = lower value | relative growth, % (concentration not given with the values) | 170,000 compounds, 0.53% hits | AID 720641;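 active = growth at 42 °C up to 50% and 20 or more points under that at 30 °C, or under 10% at both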;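 note: 300 nL library stock went into each well; scaled to the means of positive and negative controls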
GIV-Gai inh = GIV-Galpha-i interaction inhibition | 210,000 compounds, 0.42% hits | P08753 | percent of control (FP), % (test concentration not listed) | Galpha-i3/FITC-GIV peptide fluorescence polarization, 90 min; stronger effect = lower value; scaled: aluminum fluoride 0%, vehicle 100%;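 active = replicate mean at 85% of control or lower, very high polarization wells dropped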;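 note: wells of about 15 µL received 100 nL stock; the first replicate is given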
Target sequence (P08753 whole entry, looked up): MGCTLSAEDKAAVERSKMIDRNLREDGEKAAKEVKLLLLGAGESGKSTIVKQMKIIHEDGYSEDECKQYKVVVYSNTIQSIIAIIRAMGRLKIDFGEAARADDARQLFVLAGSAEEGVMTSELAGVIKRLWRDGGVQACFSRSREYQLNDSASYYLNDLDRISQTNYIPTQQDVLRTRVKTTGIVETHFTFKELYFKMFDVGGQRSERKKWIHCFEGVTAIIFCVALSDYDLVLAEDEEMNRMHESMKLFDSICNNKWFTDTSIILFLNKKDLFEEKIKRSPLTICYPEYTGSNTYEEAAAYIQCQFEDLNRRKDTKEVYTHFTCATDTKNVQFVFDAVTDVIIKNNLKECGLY
Sa growth inh second temp = second read-out of Sa growth inh, no call of its own (marks repeat the call); relative growth, %; measured here: growth at 30 °C;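 optical density after 20 h as mean of two plates; 100% = untreated growth and lower means inhibition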
The depositor's hits bear a star; · = no result given; & = joins results of further samples.

Every second line gives: HCMV UL50-53 inh	Sa growth inh	Sa growth inh second temp	GIV-Gai inh
1) O=C(Cc1ccccc1)Nc1sc2c(c1C(=O)Nc1ccccc1Cl)CCCCC2
→ -21.7	101.0	95.9	104.2
2) O=C(Nc1ccc2oc(-c3ccccc3F)nc2c1)c1ccc2c(c1)OCCO2
→ -26.5	·	·	96.2
3) CC(C)CCn1c(=O)c2ccccc2c2ccccc2c1=O
→ -8.5	78.6	84.7	101.3
4) CN(C)NC(=S)Nc1ccc(S(=O)(=O)N2CCCCC2)cc1
→ -47.1	90.5	82.2	100.0
5) CN1/C(=C(/C#N)C(=O)CSc2nc(C3CC3)n(-c3ccccc3)n2)Sc2ccccc21
→ -19.6	89.2	85.0	·
6) CC1CC(C)CN(C(=O)Cn2c(=O)n(CCCC(=O)NCc3ccco3)c(=O)c3sccc32)C1 (stereo not drawn)
→ ·	102.8	87.6	103.4
7) Cc1cc(N2CCOCC2)c2c(N)c(C)cc(C)c2n1
→ -109.7	88.9	69.1	·
8) O=C(c1cccc(-c2noc(-c3ccc4cc[nH]c4c3)n2)c1)N1CCCC1
→ -5.5	·	·	95.6
9) COc1cccc(N2CCN(C(=O)c3cccn3-c3nnc(N4CCCCC4)s3)CC2)c1
→ ·	102.5	84.5	101.1
10) O=C(c1noc2c1CCCCC2)N1CCN(c2ccc(Cl)cc2)CC1
→ ·	101.8	68.2	100.0

Complete entries from above.
Record of O=C(c1noc2c1CCCCC2)N1CCN(c2ccc(Cl)cc2)CC1 → HCMV UL50-53 inh: ·; Sa growth inh: 101.8; Sa growth inh second temp: 68.2; GIV-Gai inh: 100.0
Record of CC1CC(C)CN(C(=O)Cn2c(=O)n(CCCC(=O)NCc3ccco3)c(=O)c3sccc32)C1 (stereo not drawn) → HCMV UL50-53 inh: ·; Sa growth inh: 102.8; Sa growth inh second temp: 87.6; GIV-Gai inh: 103.4
Record of O=C(Nc1ccc2oc(-c3ccccc3F)nc2c1)c1ccc2c(c1)OCCO2 → HCMV UL50-53 inh: -26.5; Sa growth inh: ·; Sa growth inh second temp: ·; GIV-Gai inh: 96.2

The list goes on:
Every second line gives: HCMV UL50-53 inh	Sa growth inh	Sa growth inh second temp	GIV-Gai inh
11) COCc1[nH]nc2c1C1(CCC(C(C)(C)C)CC1)C(C#N)=C(N)O2 (stereo not drawn)
→ -0.2	107.7	91.7	103.1
12) O=S(=O)(Nc1ccccc1N1CCOCC1)c1ccc2c(c1)OCC2
→ -12.1	89.2	87.2	104.3
13) COc1ccc(CC(=O)Oc2cccc(-n3cnnn3)c2)cc1
→ -11.1	·	·	102.6
14) O=C(CC(=O)c1ccccc1O)c1ccccc1
→ 0.2	48.1	26.5	·
15) COc1ccccc1OCC(=O)NCCC1=CCCCC1
→ 2.8	89.2	107.9	·
16) COC(=O)NC(=Nc1ccc(OC)cc1)C(F)(F)F
→ -13.8	86.5	78.4	·
17) N#C/C(=C/c1cn(CC(=O)O)c2ccccc12)c1ccc(F)cc1
→ -57.3	108.8	95.9	99.9
18) COc1ccc(/C=C/C(=O)/C=C/c2ccc(OC)cc2)cc1
→ 0.1	95.9	99.2	·
19) CC(=O)c1cccc(NC(=O)Nc2sc3nc4n(c(=O)c3c2C)CCC(C)CC4)c1 (stereo not drawn)
→ -23.6	130.5	84.7	97.0
20) Cc1onc(-c2ccccc2)c1C(=O)OCC(=O)c1ccc2c(c1)OCCO2
→ -17.8	95.0	84.9	·

(next part)
Every second line gives: HCMV UL50-53 inh	Sa growth inh	Sa growth inh second temp	GIV-Gai inh
21) CN1CCN(C(=S)c2cn(Cc3ccc(F)cc3)c3ccccc23)CC1
→ ·	107.7	81.0	99.4
22) COc1cccc(CCC(=O)O)c1OC
→ -16.7	108.0	92.9	·
23) O=S1(=O)CC(c2ccccc2)CS(=O)(=O)C1
→ -10.7	111.3	71.3	105.4
24) CCCCc1nc2c(c(=O)[nH]1)C(C)(C)Cc1ccccc1-2
→ -35.2	112.7	104.8	109.7
25) BrCCOC1OCCOC1OCCBr (stereo not drawn)
→ -35.5	99.9	77.2	·
26) COc1cc(OC)c(N(C)C(=O)c2nn(C)c3c2CSc2ccccc2-3)cc1Cl
→ -10.3	92.2	73.4	100.6
27) Cc1ccc(N=Cc2c(O)[nH]c(=S)[nH]c2=O)cc1
→ -6.7	94.9	76.7	94.6
28) O=C(CSc1nc2c(c(=O)n1-c1ccc(Cl)cc1)SCC2)Nc1nccs1
→ ·	115.4	88.3	104.8
29) CCC1CCCCN1C(=O)c1ccc(F)cc1 (stereo not drawn)
→ -13.6	96.2	81.5	·
30) CCc1ccc(OC)c(S(=O)(=O)NC2CCCCC2)c1
→ -3.2	110.7	103.4	99.2

Other compounds.
Every second line gives: HCMV UL50-53 inh	Sa growth inh	Sa growth inh second temp	GIV-Gai inh
31) COc1ccc(Br)cc1C1CC(=O)C(C)C(c2cc(Br)ccc2OC)N1 (stereo not drawn)
→ ·	96.7	86.5	106.0
32) S=C(Nc1ccc(N2CCOCC2)nc1)Nc1cc(Cl)ccc1Cl
→ 12.3	106.7	96.4	100.1
33) Cc1cc(N2CCCC2)n2nc(C(F)(F)F)c(-c3ccc(F)cc3)c2n1
→ 10.1	·	·	100.5
34) CCn1c(C(=O)Nc2cc(C)ccc2C)cc2sc(Cl)cc21
→ 0.1	102.2	101.0	109.3
35) NC(=O)CSCc1ccc(Br)cc1
→ -4.1	92.8	103.4	108.4
36) Cc1ccc(CC(C#N)Sc2nnc(-c3cccnc3)n2Cc2ccccc2)cc1 (stereo not drawn)
→ -10.6	104.3	95.7	·
37) Cc1nn(C(C)(C)C)c(NC(=O)c2ccccc2)c1C#N
→ -33.9	114.0	88.5	102.3
38) CCOC(=O)C1CCN(c2nnc(Cc3cccnc3)c3ccccc23)CC1
→ -4.9	·	·	107.3
39) COc1ccc(-c2cn3c(n2)sc2cc(C(=O)N4CCN(c5ccc(Cl)cc5)CC4)ccc23)cc1
→ 4.7	·	·	104.4
40) COc1ccc(-c2oc3ncn4nc(COc5c(C)cccc5C)nc4c3c2-c2ccc(OC)cc2)cc1
→ -37.5	106.6	85.7	106.1

Continuation.
Every second line gives: HCMV UL50-53 inh	Sa growth inh	Sa growth inh second temp	GIV-Gai inh
41) NC(=O)C1CCN(Cc2ccccc2)CC1
→ -18.4	103.6	102.5	103.5
42) CCC(Sc1nncn1C)C(=O)Nc1ccc(OC(F)(F)F)cc1 (stereo not drawn)
→ 26.2	84.2	101.8	·
43) COc1cccc(NC(=O)CN(Cc2ccccc2)S(=O)(=O)c2ccc3nc(C)sc3c2)c1
→ ·	105.4	99.3	102.2
44) COc1ccccc1Nc1c2c(nc3ccc(NC(=O)COc4cccc(C)c4)cc13)CCCC2
→ ·	111.8	64.0	100.4
45) Cc1ccc2ncc3c(-c4ccccc4)n[nH]c3c2c1
→ 0.0	86.3	94.4	98.7
46) Nc1[nH]nc2nc(-c3ccccc3)c3c(c12)CCC3
→ 5.5	95.2	98.0	102.1
47) Cc1ccc(-n2ncc(C(=O)N3CCN(c4cccc(C)c4C)CC3)c2C2CCNCC2)c(C)c1
→ ·	105.4	86.8	97.7
48) CCOC(=O)CSc1nc2sc3c(c2c(=O)n1-c1ccccc1)CCC(C(C)(C)C)C3 (stereo not drawn)
→ 12.9	114.1	105.2	107.2
49) COC(=O)c1c(O)c2c([nH]c1=O)CCCC2
→ 4.4	107.4	114.2	106.6
50) Cc1cc2c(cc1S(=O)(=O)N1CCCC1C(=O)N1CCc3ccccc31)OC(C)C(=O)N2 (stereo not drawn)
→ 5.5	·	·	100.2

(further entries)
Every second line gives: HCMV UL50-53 inh	Sa growth inh	Sa growth inh second temp	GIV-Gai inh
51) c1ccc(Nc2ncnc3c2oc2ccccc23)cc1
→ -2.8&-6.8	130.8	98.0	98.3&105.6
52) CC1CCc2nc3ncn(CCN4CCOCC4)c(=O)c3cc2C1 (stereo not drawn)
→ -0.1	·	·	180.4
53) CN1C(=O)C(C(=O)NC(C)(C)C)C2CC1(C)Oc1ccccc12 (stereo not drawn)
→ ·	90.6	85.0	108.9
54) CCOC(=O)c1cc2c(=O)n3ccccc3nc2n(CC2CCCO2)c1=NC(=O)c1ccccc1Br (stereo not drawn)
→ -9.5	104.3	87.1	101.0
55) CCOC(=O)C1CCCN(CC(=O)/C=C2/N(C)c3ccccc3C2(C)C)C1 (stereo not drawn)
→ -7.2	101.2	91.0	·
56) CC(=O)Nc1cc(NC(C)=O)[nH]n1
→ -13.2	95.9	94.1	105.0
57) O=C(NCC(c1ccc(Cl)cc1)N1CCCCC1)c1ccccc1 (stereo not drawn)
→ -14.7	116.6	83.4	99.7
58) O=C(c1ccc2c(c1)N(Cc1ccccc1)C(=O)c1ccccc1S2(=O)=O)N1CCN(c2ccccc2)CC1
→ -11.1	84.0	100.4	111.3
59) O=C(CCc1nnc2ccc(NCc3ccccc3)nn12)NCC1CCCO1 (stereo not drawn)
→ -15.8	·	·	104.8
60) O=C(CC1SCC(C(=O)O)NC1=O)NCc1ccccc1 (stereo not drawn)
→ 5.5	88.9	89.0	104.6

Remaining list, next part:
Every second line gives: HCMV UL50-53 inh	Sa growth inh	Sa growth inh second temp	GIV-Gai inh
61) COc1cc(CN2CCCC(O)C2)cc(OC)c1OC (stereo not drawn)
→ -7.0	116.2	98.1	102.5
62) Cn1c(C(=O)NCCCN2CCC(Cc3ccccc3)CC2)cc2sccc21
→ -21.0	·	·	104.0
63) Cn1nc(C(F)(F)F)c2cc(-c3nc(-c4ccc(C(F)(F)F)cc4)no3)sc21
→ -20.1	104.1	94.0	102.0
64) CC(C)OC(=O)C1Cc2ccccc2CN1S(=O)(=O)c1cccs1 (stereo not drawn)
→ -14.6	101.8	92.5	·
65) COc1ccc(Cn2cnc3c2c(=O)n(C)c(=O)n3C)cc1
→ -12.4	98.8	86.3	101.3
66) S=C(Nc1cccnc1)Nc1cccnc1
→ 1.8	99.4	107.1	109.4
67) O=C1CCCC2=C1C(c1ccccn1)C1=C(CCCC1=O)N2
→ -44.1	92.6	99.0	·
68) Cc1ccc(N2CC(NC(=O)NCc3ccccn3)CC2=O)cc1 (stereo not drawn)
→ -36.7	89.2	84.2	99.2
69) O=C1CCC(C(=O)N2CCCC2c2nc3ccccc3s2)=NN1c1ccccc1 (stereo not drawn)
→ -12.6	102.5	94.4	·
70) CC1(C)CC(=O)c2cc(C(=O)N3CCCC(C)(C)C3)c(=O)n(-c3ccccc3)c2C1
→ -27.2	97.1	90.3	104.3

(list continues)
Every second line gives: HCMV UL50-53 inh	Sa growth inh	Sa growth inh second temp	GIV-Gai inh
71) COC(=O)C(C#N)c1nc2ccccc2nc1Cl (stereo not drawn)
→ -53.9	76.8	73.9	·
72) Cc1cccc(OCc2nnc(SCC(=O)c3cc(C)n(-c4ccc5c(c4)OCO5)c3C)o2)c1
→ -23.7	102.3	91.5	·
73) CC(C)OCCCNC(=O)CCC(=O)N1CCSc2ncccc21
→ 0.7	·	·	102.9
74) C/C(=N/O)c1nnc2cc(C)nn2c1C
→ -82.5	102.3	89.1	103.2
75) COc1ccc(CC(=O)OCC(=O)Nc2ccc(N3CCOCC3)cc2)cc1
→ -45.4	104.0	89.5	·
76) N#Cc1ccc(OCC(=O)N2CCOCC2)cc1
→ 2.4	99.1	96.8	·
77) Cc1cc(C)c(C)c(S(=O)O)c1C
→ -22.2	103.0	82.5	·
78) O=C(CSc1cccc[n+]1[O-])c1cc2ccccc2o1
→ -72.5	63.9	50.5	·
79) O=C(NCc1ccccc1F)c1cc2ccccn2n1
→ ·	97.7	90.5	100.8
80) c1ccc(NCCNc2ncnc3sccc23)nc1
→ -9.2	91.2	92.7	·

Continuation:
Every second line gives: HCMV UL50-53 inh	Sa growth inh	Sa growth inh second temp	GIV-Gai inh
81) O=C(NC1CCCCC1)n1c(=O)oc2ccc(Cl)cc21
→ -6.0	103.5	86.3	·
82) CCOc1ccccc1NC(=O)c1ccc(C)cc1
→ -10.4	87.6	85.1	·
83) Cc1c(C(=O)O)cccc1-n1c(C)nc2cccnc21
→ -12.7	·	·	90.2
84) Cc1cc(-c2ccccc2)nc(SCc2ccccc2)c1C#N
→ -3.1	98.5	100.8	·
85) Cc1ccc(S(C)(=O)=NC(=O)NC(=O)c2c(Cl)cccc2Cl)cc1 (stereo not drawn)
→ -31.3	90.9	90.8	100.3
86) COc1ccc(C(CC(=O)NCc2ccccc2Cl)N2Cc3ccccc3C2=O)cc1OC (stereo not drawn)
→ ·	142.0	86.2	106.3
87) CCOC(=O)c1nc(Nc2ccc(F)cc2)c2c(CC)noc2n1
→ -4.0	·	·	112.5
88) C=CCN1C(C(=O)c2ccccc2)=C(OC(=O)c2ccccc2)c2ccccc2S1(=O)=O
→ ·	113.3	92.1	103.9
89) CC1CN(Cn2nc(-c3cccs3)n(-c3ccccc3)c2=S)CC(C)O1 (stereo not drawn)
→ -33.5	105.2	97.5	·
90) O=C(NC1CCCCCC1)C1CCCN(c2nc3ccccc3o2)C1 (stereo not drawn)
→ -3.9	103.8	86.0	104.1
91) O=C(Cn1cnc2c(nnn2Cc2ccc(Cl)cc2)c1=O)NCC1CCCO1 (stereo not drawn)
→ 13.7	104.2	98.5	102.0
92) CCS(=O)c1ccccc1C(=O)OCc1cc(=O)oc2cc(C)c(C)cc12 (stereo not drawn)
→ -27.2	86.7	92.5	·
